# Bioassay records from PubChem.
# MgrA-DNA mod – S. aureus MgrA-DNA binding modulation | fluorescence polarization | inhibition, %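 (about 10 µg/mL by stock and volumes)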 | 0.13% of 84,000 active | AID 602314;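 active means above 50% in either of two replicates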;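 further: 0% = protein plus DNA without compound and 100% = DNA alone without protein; higher means less MgrA bound to DNA so lower polarization; one replicate is shown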
# Sa helicase inh – S. aureus DNA helicase inhibition. purified S. aureus helicase, fluorescence unwinding assay; about half of the hits fall short of the stated cut. inhibition, %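 (tested at about 80 µM)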. 0.05% of 120,000 active;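 active means both duplicates at 50% or more, or one of them with a favoured structure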;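 further: 0% = mean of negative control wells and 100% = mean of positive control wells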
# An asterisk follows results filed as active; nt = not tested or not shown. Not all compounds are listed, so the mix of outcomes need not match the whole.
SMILES	MgrA-DNA mod	Sa helicase inh
CC1CCC(C(C)C)C(OP(N)(=O)c2ccc(N(C)C)cc2)C1 (stereo not drawn)	nt	2
Cn1ncc(Cl)c(Oc2ccccc2)c1=O	-0.3	6
CC(C(O)c1ccccc1)N(C)S(=O)(=O)c1cccs1 (stereo not drawn)	nt	-13
O=C(CCc1nc2cccnc2n1-c1ccccc1)N1CCCCC1	-2.2	3
CC1=C(C(=O)Nc2ccc(C(=O)N3CCCCCC3)cc2)SCCO1	nt	19
CS(=O)(=O)N1CCN(C(=O)C2c3ccccc3Oc3ccccc32)CC1	-0.3	17
Cc1ccc2nc(-c3ccc4c(c3)NC(=O)CO4)cn2c1	nt	-4
COc1ccc(-c2ccc(=O)n(CC(=O)NCC3CC3)n2)cc1OC	-1.9	-6
O=C1c2ccccc2C(=O)N1CCNCCN1C(=O)c2ccccc2C1=O	nt	9
CC1CN(C2=CC(=O)CCC2)CC(C)O1 (stereo not drawn)	nt	-12
Cc1ccc(SCC(=O)n2c3ccccc3c3ccccc32)cc1	1.4	3
c1csc(-c2nnc(COc3nc4cc5c(cc4nc3N3CCOCC3)OCCO5)o2)c1	nt	9
O=C(CC(c1ccco1)C1CCCCC1=O)c1ccccc1 (stereo not drawn)	0.0	9
Cc1oc2cc(OC(=O)c3ccco3)ccc2c(=O)c1-c1nc2ccccc2n1C	nt	-21
O=C1c2cccnc2C(=O)N1C1CCCCC1	nt	5
CCOC(=O)C1CCCCN1 (stereo not drawn)	-0.4	1
COc1ccc2[nH]c(O)c(N=NC(=O)OC(C)(C)C)c2c1	nt	16
COc1ccccc1CC(=O)Nc1ccc(S(=O)(=O)N(C)C)cc1	-8.1	13
COc1ccc(C2CC(=O)C3=C(C2)Nc2ccccc2NC3c2cc([N+](=O)[O-])ccc2Cl)cc1 (stereo not drawn)	-0.2	nt
Cc1ccc(NCC(=O)c2ccc(-n3nncc3-c3ccccc3)cc2)cc1	-2.9	-18
COCc1nc(SCC(=O)OC)c(C#N)cc1C(=O)OC	0.2	nt
C=CCNc1oc(-c2ccc(OC)cc2)nc1C#N	nt	-11
CCN1CCN(C(=O)c2ccc3c(c2)N(Cc2ccc(C)cc2)CCS3)CC1	2.3	5
CCCn1c(NCc2sccc2C)nc2ccccc21	nt	14
Cc1ccc(S(=O)(=O)N(c2ccccc2)C(F)F)cc1	1.1	9

# 3 entries drawn at random from those above, as already listed:
SMILES	MgrA-DNA mod	Sa helicase inh
CS(=O)(=O)N1CCN(C(=O)C2c3ccccc3Oc3ccccc32)CC1	-0.3	17
O=C(CCc1nc2cccnc2n1-c1ccccc1)N1CCCCC1	-2.2	3
Cc1ccc(NCC(=O)c2ccc(-n3nncc3-c3ccccc3)cc2)cc1	-2.9	-18

# (listing goes on)
SMILES	MgrA-DNA mod	Sa helicase inh
Cc1nc(SCCN)n[nH]1	-0.8	11
COc1cccc(CNC(=O)CC2C(=O)Nc3c2c(=O)n(C)c(=O)n3Cc2ccccc2)c1 (stereo not drawn)	nt	1
COc1cccc(C(=O)NC2=NC(CC(C)C)CC(=O)N2)c1 (stereo not drawn)	nt	3
CC1CCC(C(C)C)C(OC(=O)COC(=O)c2cc(S(=O)(=O)N3CCOCC3)ccc2O)C1 (stereo not drawn)	nt	4
COc1ccc(C(CC(=O)c2ccccc2)CC(=O)c2ccccc2)cc1	0.4	nt
C=C(C)C1CC=C(C)/C(=N/NC(=O)COc2ccc(C)cc2)C1 (stereo not drawn)	nt	-4
COc1ccc(/C=C/C=N/n2c(SC)nnc2-c2ccccc2)cc1	-1.1	1
CC1=CS/C(=C(/C#N)C(=O)N2CCOCC2)N1c1ccccc1	nt	-36
O=C(O)CCC1NC(=S)N(c2ccccc2)C1=O (stereo not drawn)	nt	15
CC(=O)Oc1cn(C)c2ccccc12	nt	-4
CCC(C)Sc1nnc(N)s1 (stereo not drawn)	-1.2	8
CSc1nc2cccnc2s1	0.3	nt
CC(=O)n1cc(/C=C2/C(=O)NC(=O)N(c3ccc(Cl)cc3)C2=O)c2ccccc21	7.8	nt
CC1CCCC(NC(=O)COC(=O)/C=C/c2ccc(F)cc2)C1C (stereo not drawn)	-0.4	-4
CCOC1=NN(c2ccc([N+](=O)[O-])cc2)C(=O)/C1=C/c1ccc(OC)c(OC)c1OC	0.0	nt
Cn1ncc(SCc2ccccc2)c(Cl)c1=O	0.9	nt
COc1cc2c(cc1OC)C(C(=O)Nc1ccc(F)c(Cl)c1)CC(=O)N2 (stereo not drawn)	-1.4	2
COC(=O)C1=C(C)NC2=C(C(=O)CC(c3ccc(Cl)cc3)C2)C1c1cc(Br)c(O)c(OC)c1 (stereo not drawn)	0.2	nt
O=C(Nc1ccc(Oc2ncnc3cc(Cl)ccc23)nc1)c1ccccc1	-2.2	nt
Cc1cc(Cl)ccc1OCC(=O)Nc1ncc(Br)s1	1.7	-14
OC(COC(C(F)(F)F)C(F)(F)F)CN1CCN(Cc2ccc3c(c2)OCO3)CC1 (stereo not drawn)	nt	-7
COC(=O)c1cc(OCC(=O)Nc2cccc3nsnc23)cc(C(=O)OC)c1	nt	17
CC1(C)CC(=O)C2=C(C1)Nc1ccccc1N1C(=O)c3ccccc3C21 (stereo not drawn)	-2.1	2
O=[N+]([O-])c1cc(C(F)(F)F)ccc1NCCc1ccccc1	-0.2	nt
CCOC(=O)Cn1c(Cl)c(/C=N/NC(=O)c2ccccc2)sc1=O	nt	4

# New compounds follow
SMILES	MgrA-DNA mod	Sa helicase inh
S=c1n(CN2CCOCC2)nnn1C1CCCCC1	2.5	17
CNCc1cnn(-c2ccccc2)c1	nt	-8
COc1ccc(N2C(=O)CSC2c2ccc3c(c2)OCO3)cc1 (stereo not drawn)	nt	3
COc1cccc(C(O)c2nccn2Cc2ccccc2)c1OC (stereo not drawn)	-2.0	5
CC1(C)CSC(=NCCc2ccccc2)N1	-1.2	-20
Cc1nn(CCC(N)=O)c2nc(-c3cccs3)cc(C(F)(F)F)c12	1.6	-4
CS(=O)(=O)N(CC(=O)N1CCCCCC1)c1cc(Cl)cc(Cl)c1	0.0	6
CN(C)/C=C1\SCc2ccccc2C1=O	9.7	nt
CCCc1cc(=O)oc2cc(O)cc(O)c12	nt	11
CN(Cc1nc2cc(C(F)(F)F)ccc2c(=O)[nH]1)C1CCCCC1	nt	-14
Cc1cc(CN)c2[nH]c3c(c2c1)CCCC3	8.6	16
O=C(CSc1nnc(Nc2ccccc2)s1)NCC1CCCO1 (stereo not drawn)	nt	-14
COc1ccc(-c2ccc(-c3noc(-c4ccccc4F)n3)c(OC)n2)cc1	-0.5	9
O=C(N=Nc1c(O)[nH]c2ccccc12)C1CC1c1ccccc1 (stereo not drawn)	3.0	0
CC(=O)Nc1nc(C)cs1	2.8	11
O=C(CCc1nc(-c2ccccc2F)no1)N1CCN(C2CCCCC2)CC1	nt	17
CSc1nn(-c2ccccc2)c(NC(=O)COc2cccc3c2OC(C)(C)C3)c1C#N	nt	-15
COc1ccc(NC(=O)C2CC(=O)N(C)C(=Nc3ccc(Cl)c(C(F)(F)F)c3)S2)cc1 (stereo not drawn)	0.3	nt
O=C(CNc1ccccc1)N/N=C/c1ccc(N2CCOCC2)cc1	nt	-5
Cc1cccc(-c2cc3nc(C)cc(NCCCn4ccnc4)n3n2)c1	-0.1	7
O=C1CC(Cc2ccccc2)N=C(NC(=O)c2ccccc2)N1 (stereo not drawn)	nt	37
Cc1cc(NC(=O)COCc2cc(-c3ccc(F)cc3)on2)n(-c2ccccc2)n1	nt	3
O=C(NNc1ncccc1-n1cccc1)c1ccco1	nt	6
O=C(O)c1cccc(C(=O)O)n1	nt	10
COC(F)(C(=O)NC12CC3CC(CC(C3)C1)C2)C(F)(F)F (stereo not drawn)	21	-7

# Profiles from above. Values in the order: MgrA-DNA mod	Sa helicase inh
# CN(Cc1nc2cc(C(F)(F)F)ccc2c(=O)[nH]1)C1CCCCC1 is entered as nt	-14
# CCC(C)Sc1nnc(N)s1 (stereo not drawn) is entered as -1.2	8
# COC(=O)C1=C(C)NC2=C(C(=O)CC(c3ccc(Cl)cc3)C2)C1c1cc(Br)c(O)c(OC)c1 (stereo not drawn) is entered as 0.2	nt
# CS(=O)(=O)N1CCN(C(=O)C2c3ccccc3Oc3ccccc32)CC1 is entered as -0.3	17

# Next compounds:
SMILES	MgrA-DNA mod	Sa helicase inh
Cc1ccc(NC(=O)CCS(=O)(=O)Cc2ccccc2)c(Br)c1	-3.5	nt
O=C(O)c1cccn2nnnc12	-0.1	5
COc1cccc(-n2cnc3scc(-c4cccs4)c3c2=O)c1	0.4	3
O=C(CN1C(=O)c2ccccc2C1=O)c1ccc(Cl)cc1	nt	-3
CNC(=S)N1CCc2c([nH]c3ccccc23)C1C(F)(F)F (stereo not drawn)	nt	-33
O=C(CCc1nc2cccnc2n1-c1ccccc1)Nc1cccc(-c2ccno2)c1	nt	19
CCN(CC)c1cc(C)c2cc(NC(=O)C3CCCCC3)ccc2n1	nt	36
CCC1=Nc2cc(C(=O)N3CCC(C)CC3)ccc2Sc2ccccc21	-7.8	7
CN1CCN(CCC(=O)Nc2cccc(F)c2)CC1	-0.2	2
CON(C)c1nc(Cl)nc(N(C)C)n1	3.2	9
O=C1c2cccnc2C(=O)N1Cc1ccc(S(=O)(=O)N2CCCN(Cc3ccc(F)cc3)C2)cc1	nt	9
O=C1CS/C(=N\N=C\c2ccccc2Cl)N1CC1CC1	nt	3
Cn1c(=O)oc2cc(Cl)c(C(=O)c3cc4c(cc3Cl)oc(=O)n4C)cc21	nt	-20
COC(=O)[C@H](CC(N)=O)NC(C)=O	nt	21
Nc1nc(-c2ccc3c(c2)CCCC3)cs1	-0.1	-14
CCN1CC=C2C(C#N)=C(N)C(C#N)(C#N)C(c3ccc(OC)c4ccccc34)C2C1 (stereo not drawn)	3.8	-5
O=C(NC1CCCCC1)c1cccnc1C(=O)O	nt	1
COc1cc(C2c3c(oc4ccccc4c3=O)C(=O)N2Cc2ccccc2)ccc1O (stereo not drawn)	1.6	5
COc1ccc(C)cc1S(=O)(=O)N(C)CC(=O)N1CCN(c2cccc(Cl)c2)CC1	-2.8	2
CCN(CC)C(=O)COc1ccc(/C(C)=N/NC(=O)c2ccccc2O)cc1	nt	13
Cc1cc(C)cc(N2CC(C)(C)C2=O)c1	1.1	nt
CSc1sc(C(=O)NN)c2c1C1(CCC2)SCCS1	-1.9	nt
O=C1NC(=O)C(Nc2ccccc2C(=O)O)S1 (stereo not drawn)	5.5	24
O=C(CCC(=O)N1CCN(S(=O)(=O)c2ccccc2)CC1)c1cccs1	nt	-7
CC(C)CC[n+]1[nH]ccc1N	nt	16

# Later entries
SMILES	MgrA-DNA mod	Sa helicase inh
Cc1ccccc1C1NC(=O)Cc2ccccc21 (stereo not drawn)	1.4	6
CC(C)NC(=O)Cn1cc(C(=O)C(C)(C)C)c2ccccc21	-0.2	10
Cc1ccc(C(=O)CSC#N)cc1	2.4	nt
Cc1c(C(C)(C)C)sc(=N)n1C	0.3	1
CCOC(CCn1c(SCC(=O)NC2CCCCC2)nc2ccccc2c1=O)OCC	nt	17
CC1(C)C(=O)C2(C(=O)Nc3cccc(C(F)(F)F)c3)CCC1C2 (stereo not drawn)	-1.5	0
CC1=NN(C(=O)c2ccccc2Cl)C(O)(C2CCCCC2)C1 (stereo not drawn)	1.4	3
CCc1ccc(NC(=O)Cn2c(C(=O)OC)cc3oc4ccccc4c32)cc1	-0.4	-7
COC(=O)c1c(COC(=O)c2cc(S(=O)(=O)N(C)C)ccc2N2CCOCC2)nc2ccccc2c1C	nt	-8
CN(C(=O)c1cccc(S(=O)(=O)N2CCCC2)c1)C1CCCCC1	-2.3	-10
COCC(=O)N1CCN(c2cccc(Cl)c2)CC1	1.7	9
CCn1c(O)c(/C=C2\C=Nc3ccc(Br)cc32)c(=O)[nH]c1=O	3.5	17
Cc1nc(CN2CCN(C(=O)c3ccc(C(C)(C)C)cc3)CC2)cs1	nt	16
CC(C)(C)c1ccc(-c2nnc(-c3ccccc3[N+](=O)[O-])o2)cc1	-0.8	nt
Cc1nc2nc[nH]n2c(=O)c1NC(=O)CC12CC3CC(CC(C3)C1)C2	-1.4	-4
CCn1c(=N)n(CC(=O)c2ccc(C)cc2)c2ccccc21	nt	25
O=CN1CCCNCC1	nt	-9
Cc1ccc(Nc2nnc(-c3ccccc3N)o2)cc1C	1.8	nt
CN(C)c1cc[n+](Cc2ccccc2)cc1	0.7	-3
COCCCNc1nc(CC(C)C)nc2c1nnn2Cc1ccccc1	-0.3	20
CCOc1ccc2nc(SCc3c(F)c(F)c(F)c(F)c3F)[nH]c2c1	-6.5	nt
CCS(=O)(=O)c1ccc(-c2cccc(NC(=O)C3CC3)c2)nn1	nt	9
N#Cc1c(C2CCCCC2)[nH]c(=S)[nH]c1=O	5.1	nt
CCOC(=O)N1CCC(NC(=O)c2cc3cc4ccc(C)cc4nc3o2)CC1	nt	-10
CC1CN(c2cc(=O)n(Cc3ccc(F)cc3)c(=O)[nH]2)CC(C)O1 (stereo not drawn)	nt	8

# Next part
SMILES	MgrA-DNA mod	Sa helicase inh
CCn1cc(C(=O)NC2CCCCC2)c(=O)c2ccc(C)nc21	3.7	0
O=C1CN(Cc2nc3scc(-c4cccs4)c3c(=O)[nH]2)CCN1	nt	2
C=CCNc1nc(C(=O)OCC(=O)N2CC(C)OC(C)C2)cs1 (stereo not drawn)	nt	-5
N#CCCS(=O)(=O)c1ccccc1	2.1	-6
COc1ccc(COc2ncnc3ccccc23)cc1F	nt	20
O=C(CC(c1ccccc1)c1cc(Br)ccc1O)NCCN1CCOCC1 (stereo not drawn)	1.9	5
N#Cc1cc2c(nc1SCC(=O)N1CCCCC1)CCCC2	0.2	-1
